Assay outcomes deposited in PubChem BioAssay by National Center for Advancing Translational Sciences (NCATS).
gsp agonist: qHTS for Agonist of gsp, the Etiologic Mutation Responsible for Fibrous Dysplasia/McCune-Albright Syndrome: qHTS | gsp mutant cells, cAMP HTRF, 30 min; control for the full effect not named in the record | Potency, µM (highest dose often 76.9 µM), for the others: at the highest dose activation (cAMP increase), usual class: activators | 340,000 compounds, 0.13% hits | AID 624287, 2012; active = well fitted activation curve with a large enough effect; inconclusive = small, poorly fitted or top-dose-only effect, or another doubt; inactive = no such curve, though single readings can be large or run the other way; cell line not stated here;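 note: phosphodiesterase inhibitor Ro 20-1724 added with compounds to block cAMP breakdown; potency is the fitted concentration of half-maximal effect; nearly all actives have a fitted effect of over 60% in size; about a fifth of the inactives were tested at one dose only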
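Cells in DMEM/10% FBS with G418 were pretreated with compounds in DMSO plus […] (300 uM stock) for 30 min at 37C. cAMP was measured by HTRF (cAMP-d2 plus anti-cAMP antibody-K) after 30 min at room temperature.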
gsp antag: qHTS for Antagonists of gsp, the Etiologic Mutation Responsible for Fibrous Dysplasia/McCune-Albright Syndrome: qHTS; gsp-mutant cells, cAMP HTRF, 30 min; control for the full effect not named in the record; Potency, µM (series often up to 76.9 µM), without a hit: at the highest dose activity change, negative = inhibition, usual class: inhibitors; 340,000 compounds, 0.4% hits; active = falling curve of any shape with a large fitted effect; inconclusive = falling curve, mostly with a smaller effect; inactive = flat or rising curve; cell line not stated here;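 note: intracellular cAMP measured with PDE inhibitor Ro 20-1724 present during compound exposure; potency is the fitted concentration of half-maximal effect; % is set by controls: 0 for no effect and ±100 for the full control effect; nearly all actives have a fitted effect of over 65% in size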
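Measurement of cellular cAMP by homogeneous time-resolved fluorescence following a 30 min compound exposure at 37C. The PDE inhibitor […] was present throughout; the assay buffer was DPBS with 0.05% BSA and 0.005% Tween 20.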
ClpP mod: qHTS Assay for Activators of ClpP; purified B. subtilis ClpP, FRET peptide cleavage, 20 min; Potency, µM (titrated, usually from 57.5 µM), inactives show at the highest dose activity change, negative = active; 340,000 compounds, 1.9% hits; AID 651965, 2013; active = well fitted falling curve with a large enough effect; inconclusive = small, poorly fitted or top-dose-only effect; inactive = no such curve, though single readings can be large or run the other way; note: potency is the fitted concentration of half-maximal effect; the source files actives as falling curves though it sought activators and does not explain the sign; nearly all actives have a fitted effect of over 65% in size; many hits overshoot -100%
Target sequence (P80244 whole entry, looked up): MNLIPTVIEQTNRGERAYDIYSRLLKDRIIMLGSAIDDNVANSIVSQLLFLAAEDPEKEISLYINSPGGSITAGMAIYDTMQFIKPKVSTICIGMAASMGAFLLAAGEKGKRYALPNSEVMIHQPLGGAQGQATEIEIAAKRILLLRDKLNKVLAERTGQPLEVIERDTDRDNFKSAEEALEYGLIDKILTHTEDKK
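FRET quenching reversal measured ClpP activation: 10 microg/mL B. subtilis ClpP at pH 8 with the FRET-FV decapeptide, read at 430 nm after 320 nm excitation. The 20-min minus 0-min signal was scaled between DMSO/no-enzyme wells and ADEP (5.8 microM final).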
Menin-MLL FL inh: qHTS Assay for Inhibitors Targeting the Menin-MLL Interaction in MLL Related Leukemias: Competition With Fluorescein Labeled MLL-derived Peptide; Fluorescence polarization, fluorescein-MLL peptide displacement from menin; FP activity change, % at 61.4 µM; 290,000 tested, under 10 active; AID 1766, 2009; inconclusive = falling polarisation curve, or a change in total fluorescence; inactive = total fluorescence flat and polarisation flat or rising; no compound was filed as active; the % refers to the polarisation; negative = inhibition;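 note: % of control where 0% means no effect; inhibitors lower the polarisation; unlabelled MLL peptide was the positive control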
Sfp inh: qHTS Assay for Inhibitors of Bacillus subtilis Sfp phosphopantetheinyl transferase (PPTase) | Biochemical Sfp PPTase activity, qHTS | Potency, µM, for the others: max response, negative = inhibition, hits mostly inhibitors | 310,000 compounds, 3.5% hits; active = well fitted inhibition curve with a large enough effect; inconclusive = small, poorly fitted or top-dose-only effect, or another doubt; inactive = no such curve, though single readings can be large or run the other way;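 note: the enzyme is Sfp with the accession as filed and its product quenches rhodamine fluorescence; potency is the fitted concentration of half-maximal effect; 0% = enzyme reaction without inhibitor and -100% = no enzyme wells; top concentration of the series not given in the record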
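Buffer: 50 mM Hepes-Na pH 7.6, 10 mM MgCl2, 0.01% Nonidet P-40, 0.01% BSA. Enzyme 15 nM, pre-exposed to compound 15 min; substrates then added and fluorescence change tracked over 30 min.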
TRPML1 inh: qHTS for Inhibitors of the Human Mucolipin Transient Receptor Potential 1 (TRPML1); Mucolipin-1 (Homo sapiens), Q9GZU1; TRPML1-inducible cells, Ca2+ dye fluorescence, FDSS; stronger effect = lower value; inhibition of EC80 agonist-evoked calcium signal; activity change, negative = inhibition, % (no concentration beside the values); 390,000 compounds, 0.02% hits; in the data active means activity change below about -50%; inconclusive means about -30% to -50%; inactive means above about -30%;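 note: stimulus is agonist 54-4 at its EC80 concentration; % is set by controls: 0 for no effect and ±100 for the full control effect; compound concentration not given in the record; the text of the record puts the active cut at -80%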
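Calcium fluorescence in TRPML1-DL cells induced overnight with Tet: a 110 s read after compound pin addition, then a 110 s antagonist read after challenge with 54-4 at 4 uM final (EC80).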
TRPV1 PAM: HTS Assay for Compounds that Act as Potentiators of the Vanilloid Receptor 1; AID 540277, 2011; Transient receptor potential cation channel subfamily V member 1 (Homo sapiens), Q8NER1; potentiation, % at 8.33 µM; TRPV1-expressing cells, Fluo-8 calcium influx, capsaicin EC20 potentiation; host cell line not named in the record; control for the full effect not named in the record; 320,000 compounds, 0.02% hits; active means potentiation above 80%; inconclusive means 30% to 80%; inactive means below 30%; note: 0% is about no effect
Target sequence (Q8NER1 whole entry, looked up): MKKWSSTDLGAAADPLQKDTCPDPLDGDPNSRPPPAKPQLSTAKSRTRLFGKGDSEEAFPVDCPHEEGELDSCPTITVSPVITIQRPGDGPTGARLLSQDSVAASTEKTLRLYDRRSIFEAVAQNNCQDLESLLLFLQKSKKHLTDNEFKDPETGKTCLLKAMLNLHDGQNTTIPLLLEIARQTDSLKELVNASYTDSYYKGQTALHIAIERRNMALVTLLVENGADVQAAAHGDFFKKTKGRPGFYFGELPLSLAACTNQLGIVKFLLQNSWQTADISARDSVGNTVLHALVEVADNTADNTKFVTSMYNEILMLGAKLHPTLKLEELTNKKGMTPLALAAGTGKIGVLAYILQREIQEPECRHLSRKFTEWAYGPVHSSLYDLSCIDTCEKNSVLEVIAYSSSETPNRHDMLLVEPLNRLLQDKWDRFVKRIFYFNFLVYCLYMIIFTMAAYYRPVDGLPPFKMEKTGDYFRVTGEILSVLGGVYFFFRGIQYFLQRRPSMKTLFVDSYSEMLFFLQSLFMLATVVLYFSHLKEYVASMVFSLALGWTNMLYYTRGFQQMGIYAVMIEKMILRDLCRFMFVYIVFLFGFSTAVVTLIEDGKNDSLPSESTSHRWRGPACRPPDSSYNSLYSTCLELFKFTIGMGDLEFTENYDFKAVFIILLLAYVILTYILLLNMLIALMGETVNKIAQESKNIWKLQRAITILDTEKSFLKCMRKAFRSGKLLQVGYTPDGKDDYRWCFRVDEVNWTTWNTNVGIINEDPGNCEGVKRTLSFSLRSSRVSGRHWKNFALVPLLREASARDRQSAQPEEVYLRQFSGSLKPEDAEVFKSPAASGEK
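Fluo-8 calcium influx in TRPV1-expressing cells, kinetic read (ex 480/em 520 nm). Compound added and read 3 min for agonist activity, followed by capsaicin at EC20 final and 2 min further read for enhancement.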
* = called active by the depositor; ? = inconclusive; . = no result given; & = joins results of further samples; [ ] = another dose, or the depositor's remark. Not a hit list (roughly 4.9% active in at least one column).

SMILES	gsp agonist	gsp antag	ClpP mod	Menin-MLL FL inh	Sfp inh	TRPML1 inh	TRPV1 PAM
CCC1CCCCN1Cc1nc2c(c(=O)n(C)c(=O)n2C)n1CCC(C)C (configuration not stated)	0%	0%	0.7%	-0.9	13%	-3	-7
O=C(Nc1cccc(NC(=O)c2ccc(Br)o2)n1)c1ccc(Br)o1	12%	8%	-8.4%	4.6	-20%	83	3
O=C(Nc1ccc(Oc2ccccc2)cc1)c1ccco1	?	?	-0.3%	-2.4	2%	4	-4
Cc1cccc(C(P(=O)(c2ccccc2)c2ccccc2)P(=O)(c2ccccc2)c2ccccc2)n1	4%	1%	1.0%	0.2	11%	52	4
CN(C)CCN(C(=O)c1ccc2ccccc2c1)c1nc2ccc(F)cc2s1	13%	7%	-2.7%	-1.5	-6%	26	-1
COC1CCCCC1Nc1ccc(C)c(C)c1 (configuration not stated)	-16%	6%	-0.6%	-2.4	-19%	4	-7
CCOc1cc(C2CC(=O)c3c(ccc4ccccc34)N2)ccc1O (configuration not stated)	-8%	-2%	-0.9%	7.5	3%	18	19
Cc1ccc(C)c(N2CCN(C(=O)C(Cc3ccccc3)n3cccc3)CC2)c1 (configuration not stated)	-76%[inhibitor]	-9%	-0.8%	2.0	-27%	86	1
Cc1cc(C(=O)NCCCN2CCCC2=O)no1	-2%	11%	0.3%	-1.2	14%	-3	18
O=c1c(/C=N/OCc2ccc(Cl)cc2Cl)c[nH]n1-c1cccc(Cl)n1	-43%[inhibitor]	-10%	-0.1%	4.0	2%	1	?
O=c1[nH]c2ccc(S(=O)(=O)Nc3ccc(Br)cc3)cc2[nH]1	-22%	21%	0.0%	-1.2	2%	-5	2
Cc1ccc(C)c(Nc2ccc(C(=O)NCCc3ccccc3)cn2)c1	-25%	-1%	-1.2%	0.8	-2%	19	3
Cc1ccc2cc(CN(CC3CCCO3)C(=S)Nc3ccccc3)c(=O)[nH]c2c1C (configuration not stated)	-7%[15.4 µM]	6%	0.3%	5.9	16%	-3	-5
CC1CC(C)CN(S(=O)(=O)c2ccc3c(c2)C(C)(C)C(=O)N3C)C1 (configuration not stated)	?	1%	1.6%	.	18%	24	8
CC1(C)N=C(N)N=C(N)N1c1ccc(OCC(=O)N2CCOCC2)c(Cl)c1	4%	.	-0.1%	.	.	-2	.
NS(=O)(=O)c1ccc(CCNC(=O)CN2CCN(c3cccc(Cl)c3)CC2)cc1	33%	1%	0.3%	.	19%	6	7
COc1ccc2[nH]c(=O)c(CN(C(=O)c3cccnc3)c3ccccc3OC)cc2c1	-60%[inhibitor]	-19%	?	-1.5	11%	-6	2
CCOC(=O)C1CCN(C(=O)Cc2c(C(=O)O)n(CC)c3ccccc23)CC1	-6%	2%	-20%	1.8	6%	-6	-14
O=C(Cn1cnc2ccccc2c1=O)NCCC(=O)Nc1ccccc1C(F)(F)F	8%[15.4 µM]	-4%	.	3.0	0%	20	4
Cc1cccn2cc(-c3c[nH]c4ccccc34)nc12	-10%	-3%	4.0%	-2.0	5%	24	19
CC(=O)Nc1ccc(S(=O)(=O)N2CCCN(S(=O)(=O)c3ccc(C)cc3)CC2)cc1	?	?	2.9%	-1.2	3%	0	-1
Cc1ccsc1C(=O)N1CCCC(CCC(=O)NCc2ccccc2F)C1 (configuration not stated)	-5%[15.4 µM]	4%	1.7%	-0.1	-8%	0	-9
CNc1oc(-c2ccccc2)nc1C#N	1%	18%	-11%	-3.2	6%	20	-16
CCCNC(=O)C(CC)NC(=O)c1ccc(C#N)cc1 (configuration not stated)	-18%	-5%	-2.0%	.	.	-17	2
CCOC(=O)C1=C(C)OC(N)=C(C#N)C1c1ccc(O)c(OC)c1 (configuration not stated)	-6%	-4%	-1.1%	?	14%	10	17
CCc1ccc(C(C(=O)NC2CCCC2)N(C(=O)/C=C/C(=O)Nc2cc(C)on2)c2ccccc2C)cc1 (configuration not stated)	23%	?	2.5%	2.7	11%	2	11
O=C(NCC1COCCO1)c1ccc(OC2CCN(CCc3ccccc3)CC2)cc1 (configuration not stated)	15%	6%	-9.1%	-7.4	12%	31	1
N#Cc1ccsc1NC(=O)CN1CCN(c2ccccn2)CC1	39%	-4%	-3.9%	2.6	9%	-5	-5
CCc1cc(=O)oc2cc(C)cc(OC(C)C(=O)O)c12 (configuration not stated)	24%	6%	3.5µM*	3.3	9%	27	4
Cc1cccc(C)c1Nc1nnc(SCC(=O)NCc2cccs2)s1	-1%	-24%	-5.3%	4.5	-7%	-15	11

In another format: five of the compounds above.
| canonical_smiles | gsp agonist | gsp antag | ClpP mod | Menin-MLL FL inh | Sfp inh | TRPML1 inh | TRPV1 PAM |
| --- | --- | --- | --- | --- | --- | --- | --- |
| CN(C)CCN(C(=O)c1ccc2ccccc2c1)c1nc2ccc(F)cc2s1 | 13% | 7% | -2.7% | -1.5 | -6% | 26 | -1 |
| COC1CCCCC1Nc1ccc(C)c(C)c1 (configuration not stated) | -16% | 6% | -0.6% | -2.4 | -19% | 4 | -7 |
| CCOc1cc(C2CC(=O)c3c(ccc4ccccc34)N2)ccc1O (configuration not stated) | -8% | -2% | -0.9% | 7.5 | 3% | 18 | 19 |
| Cc1ccc(C)c(N2CCN(C(=O)C(Cc3ccccc3)n3cccc3)CC2)c1 (configuration not stated) | -76%[inhibitor] | -9% | -0.8% | 2.0 | -27% | 86 | 1 |
| Cc1cc(C(=O)NCCCN2CCCC2=O)no1 | -2% | 11% | 0.3% | -1.2 | 14% | -3 | 18 |

Reprinted at random: 3 records from the list, in no set order.
SMILES	gsp agonist	gsp antag	ClpP mod	Menin-MLL FL inh	Sfp inh	TRPML1 inh	TRPV1 PAM
NS(=O)(=O)c1ccc(CCNC(=O)CN2CCN(c3cccc(Cl)c3)CC2)cc1	33%	1%	0.3%	.	19%	6	7
CNc1oc(-c2ccccc2)nc1C#N	1%	18%	-11%	-3.2	6%	20	-16
Cc1cccn2cc(-c3c[nH]c4ccccc34)nc12	-10%	-3%	4.0%	-2.0	5%	24	19

(listing goes on)
SMILES	gsp agonist	gsp antag	ClpP mod	Menin-MLL FL inh	Sfp inh	TRPML1 inh	TRPV1 PAM
CCOC(=O)Cc1c(C)nc(Cc2ccc(OC(C)C)cc2)[nH]c1=O	-15%[15.4 µM]	5%	1.9%	-2.3	7%	6	-9
CC(C)Cc1nnc(NC(=O)c2cc(-c3ccccc3)nc3ccccc23)s1	?	-23%	-8.0%	0.8	-22%	-3	18
O=C(Cc1c(F)cccc1Cl)NC1CCN(Cc2ccccc2)CC1	3%	18%	-0.8%	.	.	-3	.
COc1cc(C(=O)NCc2ccc3c(c2)OCO3)c([N+](=O)[O-])cc1OC	-2%	-9%	0.4%	4.6	7%	-7	3
O=C(Nc1ccccc1F)c1ccco1	10%	4%	1.3%	-0.7	10%	-10	1
Cc1ccc(-c2nc3ccccc3s2)cc1NC(=S)NC(=O)c1cccc2ccccc12	-28%	13%	-0.3%	.	0%	3	-11
CCCn1nc(C(=O)OCC(=O)Nc2ncc(Cl)c(C)c2Cl)c2ccccc2c1=O	-4%[15.4 µM]	4%	.	0.9	6%	30	6
CCOc1ccc(NC(=S)N(CCCN2CCOCC2)Cc2cn(C)c3ccccc23)cc1	7%[15.4 µM]	-6%	-2.6%	-1.1	6%	-14	3
CN(C)CCOC(=O)COc1ccc(Cl)cc1	.	16%	-0.7%	5.8	11%&11%	-27	-5
CC(=O)Nc1ccc2c(COC(=O)[C@@H](NS(=O)(=O)c3ccc(C)cc3)C(C)C)cc(=O)oc2c1	1%[15.4 µM]	-8%	-1.6%	.	.	-8	.
CC(=O)NCCc1ccc(S(=O)(=O)NC2OC(=O)c3ccccc32)cc1 (configuration not stated)	-1%	-1%	-1.9%	3.3	4%	-7	-3
Cn1c(CNC(=O)c2ccco2)nnc1SCC(=O)c1ccc(F)cc1	5%[15.4 µM]	7%	.	.	13%	6	15
O=C(NCC12CC3CC(C1)CC(CNC(=O)N1CCCC1)(C3)C2)N1CCCC1	-6%	-11%	2.1%	1.7	17%	13	6
CCN1CCN(C2CCN(C(C)=O)CC2)CC1	.	.	.	-8.9	0%	.	1
O=C(COC(=O)COc1ccc2ccccc2c1)NCC(F)(F)F	22%	4%	.	-3.8	16%	-3	-7
O=C(NC(=S)Nc1ccccc1Cl)c1cncc(Br)c1	6%[15.4 µM]	-18%	-1.4%	0.6	2%	5	-9
COc1ccccc1NS(=O)(=O)c1ccc(C(=O)NCC(c2ccco2)N2CCCCC2)cc1 (configuration not stated)	3%	-29%	0.1%	.	.	2	.
C/C(=N\NC(N)=O)C1(C)CCCCC1	?	17%	0.7%	-1.1	13%	2	19
COC(=O)Cn1c(CN2CCOCC2)nc2c1c(=O)n(C)c(=O)n2C	28%	3%	1.6%	3.6	12%	37	14
COc1ccc(NC(NC(=O)c2cccnc2)C(Cl)(Cl)Cl)cc1 (configuration not stated)	-2%	13%	.	-2.6	15%	-4	7
Cc1nn(CCCC(=O)NCc2ccco2)c(=O)c2nn(-c3ccccc3)c(C)c12	16%	-13%	-12%	.	3%	-15	?
COc1cnc(N(C)C)nc1Sc1ccc(Cl)cc1	20%	8%	32µM*	3.0	-3%	-15	-16
